PABP FP inh: PABP poly(A) RNA binding inhibitors, primary screen, biochemical, fluorescence polarization, uHTS; 1% of 290,000 active; inhibition, % at 35 µM;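 active = 50% or more with normal probe brightness, or confirmed in later tests; inconclusive = above 50% with abnormal brightness, or retests that disagree; inactive = below 50% or failed in later tests; about a fifth of its hits are not listed in these tables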;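 also: calls also rest on retests at 20 µM and on dose response follow-up; controls were probe without protein and protein plus probe with vehicle; some compounds called inactive have numbers as strong as hits; many hits fall short of the cut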
Target sequence (P11940 whole entry, looked up): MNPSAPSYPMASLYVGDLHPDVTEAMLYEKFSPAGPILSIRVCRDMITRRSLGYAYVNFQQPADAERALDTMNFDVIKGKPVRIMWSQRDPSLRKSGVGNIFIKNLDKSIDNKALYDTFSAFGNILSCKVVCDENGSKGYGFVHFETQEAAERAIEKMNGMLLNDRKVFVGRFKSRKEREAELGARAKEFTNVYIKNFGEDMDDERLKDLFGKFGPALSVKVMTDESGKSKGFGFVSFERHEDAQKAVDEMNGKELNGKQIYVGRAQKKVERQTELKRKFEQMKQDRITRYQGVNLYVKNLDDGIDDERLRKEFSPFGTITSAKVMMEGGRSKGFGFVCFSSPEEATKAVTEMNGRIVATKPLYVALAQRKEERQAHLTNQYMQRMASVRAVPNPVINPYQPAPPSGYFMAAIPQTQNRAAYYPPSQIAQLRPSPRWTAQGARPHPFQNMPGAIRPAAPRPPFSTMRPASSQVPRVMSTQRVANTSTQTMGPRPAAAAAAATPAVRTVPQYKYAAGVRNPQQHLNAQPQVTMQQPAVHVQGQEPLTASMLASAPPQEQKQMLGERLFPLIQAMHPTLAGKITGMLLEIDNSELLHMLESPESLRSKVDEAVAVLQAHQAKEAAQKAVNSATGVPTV
Yeast UUG start: modulators of yeast start codon fidelity, primary screen, whole organism, S. cerevisiae, single point, plate reader; 0.13% of 350,000 active; AID 602363, 2012; activity score, % at 18.7 µM; S. cerevisiae UUG-firefly luciferase reporter, luminescence/redox ratio;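 active = replicate mean at a twofold rise or more, about +100% in these data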;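 also: firefly luciferase made from a UUG start codon reports start codon fidelity; reporter light over untreated wells divided by growth signal over untreated wells; some hits fall short of that in this replicate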
MT1-MMP act inh: blockers of MT1-MMP proenzyme processing, primary screen, HT1080 RFP-PRO-GFP cells, GFP/RFP fluorescence | GFP/RFP ratio fluorescence, overnight; percent of plate control window, DMSO zero | GFP/RFP ratio change, % at 20 µM | 0.061% of 360,000 active;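 active = GFP/RFP ratio change of at least 30% with cell ATP level not reduced by more than half and red fluorescence within 50% of control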; also: strong numbers were not always called active
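Assay system: HT1080 RFP-PRO-GFP cells | Dosing: 20 µM single dose, 1% DMSO | Incubation: Cells overnight before dosing, compound overnight, 37 °C, 5% CO2 | Evaluation: GFP/RFP fluorescence ratio | Control set: DMSO-only wells and HT1080 RFP-L50D-GFP cell wells as references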
CSC inhib: cancer stem cell viability inhibitors, primary screen, luminescence | cancer stem cell-like cells viability | inhibition, % at 7.5 µM | 1.1% of 300,000 active | AID 2717, 2010;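 active = mean at 75% or more and at least half the replicates too; inconclusive = mean and replicates disagree; tested in HMLE shEcad cells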;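 also: 0% = median of negative and 100% = median of positive control wells; the first replicate is given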
eIF4H inh: human eIF4H binding inhibitors, primary screen, translation initiation inhibitor project, biochemical, uHTS, fluorescence polarization; Eukaryotic translation initiation factor 4H (Homo sapiens), Q15056; eIF4H fluorescence polarization binding assay; inhibition, % at 35 µM; 0.94% of 290,000 active; AID 2012, 2009;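 active = 50% or more with normal probe brightness, or confirmed in later tests; inconclusive = above 50% with abnormal brightness, or retests that disagree; inactive = below 50% or failed in later tests; about a fifth of its hits are not listed in these tables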;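 also: calls also rest on retests at 20 µM and on dose response follow-up; 0% = protein and probe with vehicle and 100% = probe without protein; strong numbers were not always called active; many hits fall short of the cut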
Rce1 inhib: yeast Rce1p protease inhibitors, primary screen, biochemical, fluorescence, cell-free homogeneous; yeast membranes, quenched prenylated peptide cleavage fluorescence; 0.27% of 290,000 active; calls only; CAAX prenyl protease 2 (Saccharomyces cerevisiae (strain ATCC 204508 / S288c)), Q03530;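 active = fall in fluorescence gain of 50% or more versus controls, with final raw signal at or below 3038400; inconclusive = same 50% fall but final raw signal above 3038400; inactive = fall in fluorescence gain under 50%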;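 also: plate controls were neutral control wells for no effect and wells lacking membranes for full effect; tested at 10 µM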
HIV Env fusion: inhibitors of HIV-1 Env-driven cell-cell fusion, primary screen, HeLa-JRFL effector, CEM21 target cells, luciferase; inhibition, % at 12.3 µM; AID 651610, 2012; 1.1% of 360,000 active;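 active = mean replicate inhibition score of at least 50 and every replicate individually at or above 50; inconclusive = only one of the two criteria met; inactive = mean below 50 and not all replicates reaching 50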;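 also: 0% = plate neutral controls and 100% = maraviroc near 300 nM; one replicate is shown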
eIF4H inh retest: recorded beside eIF4H inh, whose call it bears; inhibition, %; compound at 20 µM; confirmation average;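 mean of two retest wells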
PABP FP inh retest: also measured in PABP FP inh; calls as there; inhibition, %; compound at 20 µM; confirmation repeats;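 mean of two retest wells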
MT1-MMP act inh RFP: also measured in MT1-MMP act inh; calls as there; RFP signal change, %; measured here: RFP expression control read;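 0 = vehicle wells; hits needed this value within 50% of zero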
* = called active by the depositor; i = inactive; u = inconclusive; x = no result given; & = joins results of further samples.

SMILES | PABP FP inh | Yeast UUG start | MT1-MMP act inh | MT1-MMP act inh RFP | CSC inhib | eIF4H inh | Rce1 inhib | HIV Env fusion | others
Nc1ccc(S(=O)(=O)N2CCCC2C(=O)O)cc1 (stereo not given) | -4 | x | -2 | -2 | -10 | 4 | i | -2
Cc1cc2oc(=O)cc(CN3CCCCC3C)c2cc1C(C)C (stereo not given) | 1 | -12 | -5 | 3 | -10 | 0 | i | 19
COc1ccc(CNC(=O)C(c2ccccc2F)N(C(=O)c2csnn2)C2CC2)cc1 (stereo not given) | 1 | 6 | -2 | 2 | 2 | -2 | x | 0
CC(C)(C)C1CCC(CN2CCC(CN3C(=O)C(=O)NC[C@@H]3Cc3ccccc3)CC2)CC1 (stereo not given in full) | x | -25 | 2 | 5 | x | x | x | u
CC(C)(C)NC(=O)CSc1nnc(-c2ccccn2)n1-c1ccccc1 | -6 | -11 | 1 | 4 | x | -10 | i | 29
C/C(=N\NC(=O)c1ccccc1F)c1ccccn1 | -4 | -13 | 9 | -2 | 54 | 1 | i | -8
CCNc1nc(NCC)n2c(SCC(=O)c3ccccc3Cl)nnc2n1 | -6 | -15 | 3 | 0 | -3 | 6 | i | 12
COc1cccc(CN(C)CC(=O)NC(=O)NCc2ccccc2)c1 | 4 | -3 | -9 | 0 | -2 | 2 | i | 13
Cc1ccc(Cn2ncc3c(N4CCN(c5ccc(C)cc5)CC4)ncnc32)cc1 | -5 | 10 | 6 | -10 | -2 | -7 | i | 91*
CCOC(=O)/C(C#N)=C1/C=C(C)NC(c2ccccc2O)=N1 | 20 | -6 | 8 | -28 | 33 | 7 | i | u
O=C(O)c1cc(NC(=O)c2cccc(C(=O)Nc3cc(C(=O)O)cc(C(=O)O)c3)c2)cc(C(=O)O)c1 | 11 | -12 | 2 | 0 | -22 | -10 | i | -30
CC(C)[C@H](NC(=O)c1ccccc1)C(=O)OCC(=O)N1CCc2ccccc2C1 | 4 | -12 | 3 | 5 | -9 | -6 | i | -44
CC(NC(=O)CN1CCN(Cc2cccc(F)c2)CC1)c1ccccc1 (stereo not given) | -19 | 1 | 1 | 0 | -8 | -8 | i | 13
Cc1ccc(NC(=O)Cc2nc(CCl)cs2)cc1 | -7 | x | -2 | 3 | -4 | -4 | i | 2
Cc1cc(N/N=C/c2ccccc2)nc(NCc2ccccc2)n1 | 62 | -5 | -7 | -8 | 18 | -12 | i | -16 | eIF4H inh retest=-2;PABP FP inh retest=-1
Fc1ccc(-c2ccc(CNCc3ccccn3)o2)cc1Cl | 13 | -16 | 2 | 1 | -8 | 0 | i | -4
Cc1ccc(-c2nc3ccccc3c(=O)o2)cc1 | -9 | -18 | 1 | 4 | 2 | -5 | i | -38
Fc1cccc(Cl)c1-c1nnc2ccc(C(F)(F)F)cn12 | 0 | 4 | -5 | -4 | 27 | 2 | i | 12
CSc1ccc(CNC(=O)C2CCC(=O)N(CC3CCCCC3)C2)cc1 (stereo not given) | x | -6 | 9 | 1 | x | x | x | 19
COc1cccc(CNC(=O)Cc2csc(NC(=O)Nc3ccccc3OC)n2)c1 | x | -2 | 3 | -3 | -4 | x | i | -3
COc1cccc(S(=O)(=O)N(C)C[C@H]2Oc3ncc(Br)cc3C(=O)N([C@H](C)CO)C[C@H]2C)c1 | x | -14&-1 | -4 | 1 | x | x | x | 11
C/C(=N/NC(=O)c1ccc(Cl)cc1Cl)c1cccnc1 | 0 | -4 | -2 | -1 | -11 | -4 | i | x
CCCCCCCCCCNC(=O)C(=O)Nc1ccccn1 | 1 | 11 | 0 | 6 | -5 | -6 | i | x
COc1ccc(N2C(=O)CC(N3CCN(c4cccc(Cl)c4)CC3)C2=O)cc1 (stereo not given) | 3 | -12 | 6 | -2 | -14 | -2 | i | 9
Cc1cccc(C)c1NS(=O)(=O)c1cc2c3c(c1)CC(=O)N3CCC2 | x | -3 | -6 | -3 | 4 | x | i | 8

The last seven entries of the part above are carried over, then new ones follow:
SMILES | PABP FP inh | Yeast UUG start | MT1-MMP act inh | MT1-MMP act inh RFP | CSC inhib | eIF4H inh | Rce1 inhib | HIV Env fusion | others
CSc1ccc(CNC(=O)C2CCC(=O)N(CC3CCCCC3)C2)cc1 (stereo not given) | x | -6 | 9 | 1 | x | x | x | 19
COc1cccc(CNC(=O)Cc2csc(NC(=O)Nc3ccccc3OC)n2)c1 | x | -2 | 3 | -3 | -4 | x | i | -3
COc1cccc(S(=O)(=O)N(C)C[C@H]2Oc3ncc(Br)cc3C(=O)N([C@H](C)CO)C[C@H]2C)c1 | x | -14&-1 | -4 | 1 | x | x | x | 11
C/C(=N/NC(=O)c1ccc(Cl)cc1Cl)c1cccnc1 | 0 | -4 | -2 | -1 | -11 | -4 | i | x
CCCCCCCCCCNC(=O)C(=O)Nc1ccccn1 | 1 | 11 | 0 | 6 | -5 | -6 | i | x
COc1ccc(N2C(=O)CC(N3CCN(c4cccc(Cl)c4)CC3)C2=O)cc1 (stereo not given) | 3 | -12 | 6 | -2 | -14 | -2 | i | 9
Cc1cccc(C)c1NS(=O)(=O)c1cc2c3c(c1)CC(=O)N3CCC2 | x | -3 | -6 | -3 | 4 | x | i | 8
COCC(C)n1c(SCC(=O)N(C)C2CCS(=O)(=O)C2)nc2ccccc2c1=O (stereo not given) | 6 | x | 2 | 4 | -4 | -4 | i | -2
COc1ccc(C(CC(=O)O)NC(=O)c2cc3cc(Br)ccc3oc2=O)cc1OC (stereo not given) | 1 | -1 | -9 | -3 | -8 | 8 | i | 8
CS(=O)(=O)N(CC(=O)N1CCOCC1)c1ccc2c(c1)OCO2 | 1 | x | -1 | 3 | 0 | -2 | i | x
O=C(O)CSc1nc2c(c(C(F)(F)F)n1)CCCC2 | -1&13 | -26&-5 | 0&-1 | 4&5 | -15&18 | -6&-4 | i | -2&1
CCn1cc(/C=C(\NC(=O)c2ccccc2Cl)C(=O)N2CCN(C)CC2)c2ccccc21 | 2 | -6 | -7 | 2 | x | -5 | i | -3
COc1ccc(-c2nnc(N(C)C(=O)C3CCCO3)s2)cc1 (stereo not given) | -1 | -17 | 7 | 3 | 13 | -3 | i | x
COc1ccc(CCC(C)N2CCC(CO)(Cc3ccccc3)CC2)cc1 (stereo not given) | 10 | -2 | 2 | 0 | 12 | -1 | i | -8
C/C(Cc1ccccc1)=N/NC(=O)CNC(=O)C(c1ccccc1)c1ccccc1 | 2 | x | -2 | 2 | 0 | -2 | i | 17
O=C(CSc1ncnc2[nH]ncc12)Nc1nc(-c2ccc(F)c(F)c2)cs1 | -7 | x | 10 | -16 | 9 | -9 | i | 17
Cc1cc(C)n2nc(SCN3C(=O)c4ccccc4C3=O)nc2n1 | 10 | -8 | 1 | 3 | 4 | 33 | i | x
CCOC(=O)c1ccc2c(c1)nc(SCC(=O)c1ccco1)n2CC | -3 | -18 | -10 | -3 | -6 | -3 | i | x
CN(C)c1oc(-c2ccccc2Cl)nc1S(=O)(=O)c1ccccc1 | -1 | 3 | 1 | -3 | -4 | -12 | i | 8
COc1ccc(NCc2ccc3c(c2)OCO3)cc1Cl | 2 | -10 | -2 | -1 | 3 | -4 | i | x
Cc1ccc(N2CC(C(=O)OCc3nc(N)nc(Nc4ccccc4C)n3)CC2=O)cc1 (stereo not given) | x | -1 | 3 | 3 | -11 | x | i | -1
COc1ccc2oc(C(=O)OCC(=O)NC3CCS(=O)(=O)C3)c(C)c2c1 (stereo not given) | x | -7 | -2 | 2 | x | x | x | 15
O=C(c1ccc(Cl)cc1)c1oc2ccccc2c1CS(=O)(=O)c1ccccc1 | 2 | -17 | -7 | -7 | -3 | -6 | i | x
CC(=O)c1cccc(NC(=O)COC(=O)C2=COCCO2)c1 | -5 | -10 | 0 | 1 | x | 0 | x | -2
CCc1nc2c(OCC(=O)c3ccc(Cl)cc3Cl)cccn2c1N(C)C(=O)c1ccncc1 | x | 0 | -6 | 3 | x | x | x | 14
CCOC(=O)CSc1nc2cc(C)ccc2cc1C#N | 5 | -1 | -77 | 7 | 5 | 7 | i | -418
COc1cc(SC)ccc1C(=O)N(C)Cc1ccccc1 | -7 | -3 | 7 | 5 | -9 | 19 | i | x
O=C(Cn1cnc(S(=O)(=O)N2CCCCC2)c1)NCc1ccco1 | 1 | -8 | 1 | 6 | x | 2 | i | x
Cc1sc2ncn(CC(=O)NCCCC(=O)N(C)Cc3ccccc3)c(=O)c2c1C | -5 | -11 | -3 | -1 | 4 | -3 | i | 10
CCCC(=O)NC(c1ccc(N(C)C)cc1)c1ccc2cccnc2c1O (stereo not given) | -4 | -9 | 12 | -1 | 152* | 18 | i | -27
CSc1nc(Cl)cc(N(CCO)CCO)n1 | 1 | 1 | -3 | -1 | -9 | -2 | i | x
CNC(=O)c1[nH]cnc1C(=O)Nc1cccc(OC)c1 | -13 | -16 | 5 | 3 | 2 | 2 | i | x

Reprinted from the part before: four compounds, then new ones.
SMILES | PABP FP inh | Yeast UUG start | MT1-MMP act inh | MT1-MMP act inh RFP | CSC inhib | eIF4H inh | Rce1 inhib | HIV Env fusion | others
Cc1sc2ncn(CC(=O)NCCCC(=O)N(C)Cc3ccccc3)c(=O)c2c1C | -5 | -11 | -3 | -1 | 4 | -3 | i | 10
CCCC(=O)NC(c1ccc(N(C)C)cc1)c1ccc2cccnc2c1O (stereo not given) | -4 | -9 | 12 | -1 | 152* | 18 | i | -27
CSc1nc(Cl)cc(N(CCO)CCO)n1 | 1 | 1 | -3 | -1 | -9 | -2 | i | x
CNC(=O)c1[nH]cnc1C(=O)Nc1cccc(OC)c1 | -13 | -16 | 5 | 3 | 2 | 2 | i | x
CCOC(=O)C1CCCN(C2CC(=O)N(c3ccccc3)C2=O)C1 (stereo not given) | -3 | -22 | 5 | 2 | -1 | -5 | x | 27
Cc1ccc(-c2ccc(/C=N/NC(=O)CN3CCCC3)o2)cc1Cl | 4 | -12 | -8 | -2 | 0 | -5 | i | x
CC(C)CNC(=O)c1cccc2c1-c1ccccc1C2=O | 1 | -12 | -1 | 1 | -11 | -10 | i | 1
Oc1ccc(/C=N/NC(=S)Nc2cccnc2)cc1O | 1.5* | x | 8 | -2 | 15 | 68 | i | x | eIF4H inh retest=-17;PABP FP inh retest=65*
c1cc(Nc2ncnc3sccc23)cc(-c2nnc3n2CCCCC3)c1 | 2 | -17 | 10 | -7 | -5 | 3 | i | 25
COc1ccccc1N1CCN(CC(=O)N2N=CCC2c2ccccc2)CC1 (stereo not given) | -10 | x | -2 | 1 | -1 | -7 | i | 5
O=C(CC1C(=O)NCCN1Cc1ccc(-c2ccccc2)cc1)NCCCn1cccn1 (stereo not given) | 15 | -12 | 3 | 0 | 4 | 0 | i | 6
Cc1ccc(C(=O)Nc2ccon2)cc1S(=O)(=O)N1CCCC1 | -3 | -4 | 6 | 10 | -6 | -7 | i | 20

Assay outcomes: PubChem BioAssay, several laboratories
